Source: PubChem BioAssay (National Center for Advancing Translational Sciences (NCATS))
TsaE inh: inhibitors of E. coli YjeE (TsaE); P0AF67; purified YjeE, fluorescence polarisation of a bound ADP probe; Potency, µM; hit rate 0.05% among 71,000; AID 605; active = well fitted falling curve; inconclusive = weaker or top-dose-only fall, or a rising curve; inactive = flat or poorly fitted curve;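 also: top concentration of the series not given in the record; excess ADP was the control for the full effect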
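Fluorescence polarization of a BODIPY Texas Red–ADP probe (2 uM) bound to purified YjeE (10 uM) was read after 15 min room-temperature incubation with compounds. Loss of polarization marks inhibitors; ADP serves as titrated control.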
PK Bst: pyruvate kinase (B. stearothermophilus) modulation; partly purified Bacillus stearothermophilus pyruvate kinase, luminescence ATP production; ribose 5-phosphate activator present at AC10; Potency, µM; hit rate 1.2% among 51,000; in the data active means potency below about 11 µM; inconclusive means mostly about 12 µM to 25 µM; inactive means weaker than that;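 the screen sought inhibitors and activators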;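 also: potency is read from the fitted curve at half-maximal effect; scaled between full activation by ribose 5 phosphate and full inhibition by luteolin; about four in five hits inhibit and the cells do not say which; series up to 57 µM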
An asterisk follows results filed as active; i = inactive; ? = inconclusive; . = no result given. These rows are one share of the data (hit frequency here may not be typical).

PK Bst	TsaE inh	SMILES
>57	i	CCC(C)[C@H](N)c1nnc(SCC(=O)Nc2cccc(Cl)c2)o1 (some centres undefined)
.	i	COc1ccc2[nH]c3c(=O)n(CCCCC(=O)NCCN4CCCC4)c(=S)[nH]c3c2c1
>57	i	COc1ccccc1OCCCn1c(=O)oc2ccccc21
i	i	COc1ccccc1N1CCN(C(=O)c2c(-c3c(Cl)cccc3Cl)noc2C)CC1
>57	i	Cn1c(=O)oc2cc(S(=O)(=O)Nc3ccc4c(c3)OCCO4)ccc21
>26	.	CCCc1nc(NC2CCCCC2)c(C#N)c2c1COC(C)(C)C2
>57	i	Cc1ccccc1Nc1nc(N)nc(CSc2nnc3sc4ccccc4n23)n1
.	i	CCOC(=O)c1c(-c2ccc(C)o2)csc1N
>57	i	CC(=O)OC(Cn1nc(C)cc1C)c1ccccc1 (centres undefined)
>57	i	Cc1nnc(SCc2ccon2)n1-c1ccccc1
9.6*	i	COc1ccc(-c2cc(-c3cc(F)ccc3O)[nH]n2)cc1OC
.	i	COc1ccc2nc(N)sc2c1
.	i	NC[C@@H]1O[C@H](C23CC4CC(CC(C4)C2)C3)Cc2c1ccc(O)c2O
>57	i	O=S(=O)(Nc1ccc(O)c(CN2CCCCC2)c1)c1ccccc1
.	i	COc1cc2oc(-c3ccccc3)cc(=O)c2cc1OC
>57	i	CCN1CCN(CCNC(=O)c2cn(Cc3ccccc3F)nn2)CC1
.	i	COC(=O)Nc1nc2ccc(C(=O)c3cccs3)cc2[nH]1
>11	.	CCn1cc(C(=O)NCCc2ccccc2)c(=O)c2cc(F)c(N3CCN(C)CC3)cc21
.	i	COc1ccccc1NC(=O)COc1ccc(/C=N/n2cnnc2)cc1OC
>57	i	CCCOc1ccc(NC(=O)C2CC(=O)N(C(C)C)C2)cc1 (centres undefined)
.	i	CCOc1ccc(N(CC(=O)NCc2ccccc2)S(C)(=O)=O)cc1
>57	i	COc1ccccc1NC(=O)CSc1nnc(-c2ccco2)o1
>57	i	O=C1NCCN1C(=O)N(c1ccccc1)c1ccccc1
.	i	CCOC(=O)c1c(C)oc2cc(Br)c(OC(=O)N3CCOCC3)cc12
>57	i	O=C(CSc1nnnn1C1CCCCC1)NCc1cccc(C(=O)O)c1
>57	i	CCC(C)NC(=O)C(Cc1ccccc1)NS(=O)(=O)c1cccc2nsnc12 (centres undefined)
.	i	Cc1cc(N=Cc2c(O)ccc3ccccc23)no1
>57	i	COc1cc(C2/C(=C(\O)c3ccc4c(c3)CC(C)O4)C(=O)C(=O)N2CCCn2ccnc2)ccc1O (centres undefined)
.	i	COc1ccccc1Nc1cc(C(=O)NCCCN2CCOCC2)c2ccccc2n1
>57	i	COc1ccc(NC(=O)Nc2ccccc2C(=O)N2CCCC2)cc1
>57	i	CC(C)(C)n1nnnc1C(c1ccncc1)N1CCN(C2CCCCC2)CC1 (centres undefined)
>57	i	CCOC(=O)CNc1c(-c2ccc(O)cc2)nc2ccccn12

Brought forward from above: four entries, then new ones.
PK Bst	TsaE inh	SMILES
.	i	COc1ccccc1Nc1cc(C(=O)NCCCN2CCOCC2)c2ccccc2n1
>57	i	COc1ccc(NC(=O)Nc2ccccc2C(=O)N2CCCC2)cc1
>57	i	CC(C)(C)n1nnnc1C(c1ccncc1)N1CCN(C2CCCCC2)CC1 (centres undefined)
>57	i	CCOC(=O)CNc1c(-c2ccc(O)cc2)nc2ccccn12
.	i	CC(C)(CN)CN
>57	i	O=C1NC(c2ccccc2)(C(F)(F)F)SC2=CCCCCN12 (centres undefined)
>57	i	COCc1c(Br)c(C)nc(OCC(=O)O)c1C#N
>57	i	CCOC(=O)N1CCN(C(=O)c2cc(Cl)c(Cl)cc2C(=O)O)CC1
.	i	Nc1cc(C(=O)O)c(O)c(S(=O)(=O)O)c1
.	i	O=C(Cc1ccccc1I)Nc1ccccc1
>57	i	O=C(c1ccc2c(c1)OCO2)N(c1ccccc1)C1C=CS(=O)(=O)C1 (centres undefined)
>57	i	Cc1ccc(OCC(=O)NCCN2CCCC2)cc1
i	.	COc1cccc(C=NCCNC(=O)c2nonc2N)c1O
.	i	Nc1ccc2nc(-c3ccc(Cl)cc3)[nH]c2c1
.	i	Cc1cc(C)cc(Nc2cc(C)nc3nc(C)nn23)c1
.	i	c1ccc2c(NCCN3CCOCC3)nc(-c3ccc4c(c3)OCO4)nc2c1
.	i	CN1C(=O)C(O)(CC(=O)c2ccc(F)cc2)c2cc(Br)ccc21 (centres undefined)
>57	i	CCOC(=O)N1CCN(C(=O)C2CCCN(S(C)(=O)=O)C2)CC1 (centres undefined)
>57	i	CCN(CC)c1ccc2c(c1)CCCN2
.	i	CCCCOc1ccc(C(=O)Nc2ccncc2)cc1
>57	i	COc1ccc(S(=O)(=O)NCCCCNS(=O)(=O)c2ccc(OC)cc2)cc1
>57	i	CCN(CC)CCCNc1nnc(C)c(=O)[nH]1
.	i	CNc1nc(-c2c(C)noc2C)nc2ccccc12
.	i	N#Cc1ccc(CN2CCCC3(CCN(S(=O)(=O)c4ccccc4)CC3)C2)cc1
>57	i	Fc1ccc(NCc2nnc(SCc3nnc(-c4ccccc4)o3)n2CC2CCCO2)cc1 (centres undefined)
.	i	CCCn1c(/N=C/c2cc(OC)ccc2O)nc2ccccc21
>57	i	CC(C)c1ccccc1NC(=O)c1ccco1
>57	i	Cc1ccc(C(=O)OCC(=O)Nc2ccc3c(c2)OCO3)o1
.	i	CC(C)c1nc(SCC(=O)Nc2cccc(C(F)(F)F)c2)c2c(=O)n(C)c(=O)n(C)c2n1
>57	i	O=C(COc1cc(Cl)c(Cl)cc1Cl)Nc1ccncc1
6.1*	i	OCCCN1c2ccccc2Nc2nnc(-c3ccccc3)cc21
>57	i	CCC(C)(C)n1nnnc1CN1CCC(c2nc3ccc(C)cc3[nH]2)CC1
>57	i	CCOC(=O)c1c(C)n(CC(O)c2ccccc2)c2ccc(O)cc12 (centres undefined)
.	i	COc1cc(OC)c(C2Oc3nc(SC)nnc3-c3ccccc3N2C(C)=O)cc1OC (centres undefined)
.	i	CCn1nc(C(=O)N2CCc3ccccc3C2)c2ccccc2c1=O
>57	i	COc1cc2nc(SCC(=O)NCCc3ccccc3)n(Cc3ccco3)c(=O)c2cc1OC
.	i	C[C@@H](/C=C\c1cccc(Oc2ccc(F)cc2)c1)N(O)C(N)=O
.	i	Cc1cc(=O)[nH]c(Cc2ccc(OC(C)C)cc2)n1
>57	i	CSc1ccc(S(=O)(=O)Nc2c(C)cccc2C)cc1
>57	i	CCOC(=O)N1CCN(C(=O)Cc2ccc(-n3c(=S)[nH]c4ccccc4c3=O)cc2)CC1
.	i	O=C(Oc1ccc(-c2ccccc2)cc1)N1CCOCC1
>57	i	Cc1cccn2c(=O)c(C=Nc3c(C)n(C)n(-c4ccccc4)c3=O)c(N3CCCC3)nc12
>57	i	O=C(CN1CCN(c2ccccn2)CC1)NCc1cccs1
.	i	COC(=O)[C@@]1(Cc2ccccc2)[C@H]2c3cc(C(=O)N4CCCC4)n(Cc4ccc(C(F)(F)F)nc4)c3C[C@H]2CN1C(=O)c1ccccc1
>57	i	CCCn1c(SCC(=O)Nc2ccc3c(c2)OCCO3)nnc1-c1ccco1
>57	i	COc1ccc(-c2nc(N)ncc2Oc2ccccc2Br)c(O)c1
.	i	Cc1ccc(Cl)cc1N
.	i	Clc1ccc(OCCn2ccnc2)c2ccccc12
>57	i	O=C(Nc1ccc(S(=O)(=O)N2CCOCC2)cc1)c1cccs1
>57	i	Fc1ccc(-c2nnc(CN3CCC(c4nc5ccccc5s4)CC3)o2)cc1
.	i	CCC(=O)NCCc1cc2ccc(C)c(C)c2[nH]c1=O
>57	i	O=S(=O)(NC1CCCCC1)c1ccc(S(=O)(=O)N2CCN3CCCC3C2)cc1 (centres undefined)
>57	i	CCOC(=O)c1cnc2c(C#N)c(C)nn2c1C
>57	i	Cc1cccc(OCCC(=O)NCC(c2ccccc2)N(C)C)c1 (centres undefined)
>57	i	Nc1nc(SCC(=O)NCc2ccco2)[nH]c(=O)c1-c1ccccc1
>57	i	CSC1=C(C#N)C(c2ccccc2C)C(C#N)=C(N)N1 (centres undefined)
>57	i	COc1ccc(C2(C(=O)NCCN3CCOCC3)CCOCC2)cc1
.	i	COCCNC(=O)Cn1cnc2c1c(=O)n(C)c(=O)n2C
.	i	CN1CCC[C@@H](CC2c3ccccc3Sc3ccccc32)C1
.	i	CN(C)C(=O)[C@]1(C)C[C@H]1[C@H](NC(=O)CNC(=O)[C@@H]1CCCN1C(=O)[C@]1(C)C[C@H]1[C@H](NC(=O)OCc1ccccc1)c1ccccc1)c1ccccc1

Additional compounds:
PK Bst	TsaE inh	SMILES
>57	i	CCc1cccc(NC(=O)CN(C)S(=O)(=O)c2cccc3nsnc23)c1
>57	i	CC1=C(C(=O)OC2CCCCC2)C(c2ccc(C)o2)C2=C(CC(C)(C)CC2=O)N1 (centres undefined)
.	i	O=C(Nc1ccc2c(c1)OCCO2)C1CCN(C(=O)c2ccc(F)cc2)CC1
.	i	O=C(O)C(Cc1ccccc1-c1ccccc1)C(=O)O
>57	i	CCN1CCN(CC(O)COCc2ccccc2)CC1 (centres undefined)
>57	i	Cc1ccc(S(=O)(=O)NC(=O)Nc2ccc(Cl)cn2)cc1
>57	i	Nc1nnnn1/N=C/c1ccccc1C(F)(F)F
>57	i	CN(CC(=O)N1CCN(c2ccccn2)CC1)S(=O)(=O)c1ccc(Br)cc1
.	i	CCCNC(=O)c1ccccc1C(=O)NCCC
.	i	O=C(Nc1ccc2nsnc2c1)c1ccc2c(c1)OCO2
>57	i	Cc1cc(C)c2c(n1)nn1c(NCCOCCO)cc(C)nc21
>57	i	CCCCC(=O)NCCc1cc2ccc(OC)cc2[nH]c1=O
>57	i	Cc1nnc2n1N=CC=C(C(C)(C)C)S2
>57	i	COc1cc(N2C(=O)c3ccccc3C2=O)c(Cl)cc1C(=O)OCC(=O)NCc1ccco1
>57	i	O=c1c2oc3ccccc3c2ncn1Cc1ccccc1Cl
.	i	CC(=O)OC/C=C(C)/C=C/C=C(C)/C=C/C1=C(C)CCCC1(C)C
>57	i	CC(C)(C)OC(=O)NCCCCCc1nnc(SCC(=O)Nc2cccc(Cl)c2)o1
.	i	COc1cc2c3cc1Oc1cc(ccc1O)C[C@@H]1c4c(cc(OC)c(O)c4Oc4ccc(cc4)C[C@H]3[N+](C)(C)CC2)CC[N+]1(C)C
?	i	Cc1ccc(C)n1/N=C1/NC(=O)CS1
>57	i	Cc1nn(CC(=O)N(C)C)c(=O)c2ccccc12
>57	i	Cc1ccc2c(CC(=O)O)coc2c1C
.	i	O=c1[nH]c2ccc(Cl)cc2c(-c2ccccc2)c1N1CCOCC1
>57	i	C=CCn1c(SCc2cc(=O)n3ccsc3n2)nc2scc(C3CC3)c2c1=O
>57	i	Cc1ccc2cc(CN(C(=O)C3CCCO3)C3CCCCC3)c(=O)[nH]c2c1 (centres undefined)
.	i	COCC(=O)N1CCC2(CCCN(c3ccccn3)C2)CC1
.	i	COc1ccc(C(OCCN2CCC[C@@H](C(=O)O)C2)(c2ccc(OC)cc2)c2ccc(OC)cc2)cc1
>57	i	COCCCNC(CC(=O)Nc1ccc(N(C)C)cc1)C(=O)O (centres undefined)
.	i	Cn1c(=O)[nH]c(=O)c2c1nc(SCC(=O)Nc1ccccc1)n2Cc1ccccc1
>26	.	CCc1nc2n[nH]c(N)c2c2c1CSC(C)(C)C2
>57	i	O=C(O)CCCC(=O)Nc1ccc(C(=O)N2CCCCC2)cc1
.	i	CC(C)C[C@@H](CC(=O)N[C@@H](CCC(=O)O)CC(=O)O)NC(=O)[C@@H]1CNCC[C@H]1NC(=O)C[C@@H](NC(=O)C[C@H](Cc1ccccc1)NC(=O)[C@@H]1CNCC[C@H]1N)C(C)C
.	i	Cc1c(C(=O)OCc2ccccc2)[nH]c2c1C(=O)CC(c1ccco1)C2 (centres undefined)
i	i	CC1CCc2c(sc3nc(SCC(=O)NCc4ccco4)nc(N)c23)C1 (centres undefined)
>11	i	O=C(CCS(=O)(=O)c1ccc(Br)cc1)NCc1cccs1
>57	i	COc1ccc(C(=O)Cn2nnc(-c3ccccc3NC(=O)C3CC3)n2)cc1
>57	i	CCOc1ccccc1NC(=O)c1ccccc1N(C)S(C)(=O)=O
>57	i	OC(COc1ccc2c(c1)CCC2)Cn1cnc2ccccc21 (centres undefined)
>57	i	COc1cc(NC(=O)c2ccccc2)c(OC)cc1NC(C)=O
.	i	CCOC(=O)c1[nH]cnc1C(=O)Nc1ccccn1
>57	i	Cn1c(=O)c2c(nc(SCc3cccnc3)n2Cc2ccccc2)n(C)c1=O

Shown with two lines to a compound: 4 of the compounds above
Below each SMILES – PK Bst | TsaE inh
CC1CCc2c(sc3nc(SCC(=O)NCc4ccco4)nc(N)c23)C1 (centres undefined)
  i | i
O=C(CCS(=O)(=O)c1ccc(Br)cc1)NCc1cccs1
  >11 | i
COc1ccc(C(=O)Cn2nnc(-c3ccccc3NC(=O)C3CC3)n2)cc1
  >57 | i
CCOc1ccccc1NC(=O)c1ccccc1N(C)S(C)(=O)=O
  >57 | i

(next part)
PK Bst	TsaE inh	SMILES
>57	i	CC(=O)NCCn1c(SCC(=O)c2ccccc2)nc2ccccc2c1=O
.	i	CC(=O)NCCNc1ncnc2ccc(-c3ccccc3C(F)(F)F)cc12
.	i	CC(=O)OC(C)=O
.	i	CSc1cnn(-c2ccccc2)c(=O)c1SC
.	i	Cc1ccc(OCC(=O)n2nc(C)cc2C)c(Br)c1
